Bioassay records deposited in PubChem BioAssay by NMMLSC.
Bead autofluor = flagged as autofluorescent in microsphere protease counterscreen; compound autofluorescence counterscreen, microsphere flow cytometry; hits give high values; fluorescence intensity (test concentration not listed); hit rate 3.1% among 360,000;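 active = at least 3 SD above the mean of all compounds, about 16000 in these data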;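 also: 100 nL of 1 mM stock went into each well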
* marks the source's active call; other numbers are inactive results; & = joins results of further samples. The list is partial; the hit share may differ from the screen's.

SMILES	Bead autofluor
Nc1nc2c(ncn2[C@@H]2O[C@H](CNS(=O)(=O)N3CCc4ccccc4C3)[C@@H](O)[C@H]2O)c(=O)[nH]1	5784
O=C(NCCN1CCOCC1)c1ccc2c(c1)N(Cc1cccc(Cl)c1)C(=O)c1ccccc1S2(=O)=O	3489
CNC(=O)c1ccc(CN(C)C(=O)c2cccc(S(=O)(=O)N3CCc4ccccc4C3)c2)cc1	4230
Cc1nc(Cc2nnc(SC(C)C(=O)Nc3ccccc3)o2)cs1 (stereo unspecified)	3855
COCCn1c(C(=O)N(C)C)cc2c1C[C@H]1CN(C(=O)c3ccccc3)[C@@](Cc3ccc(F)cc3)(C(=O)OC)[C@@H]21	5925
CSc1ccc(NC(=O)C2(C)CCN2C(=O)c2sccc2C)cc1 (stereo unspecified)	3811
COc1ccc(OC)c(NC(=O)C2(C)CCN2Cc2ccc(OC)c3ccccc23)c1 (stereo unspecified)	3002
Cc1c(C(=O)N2CCCC(C)(C(=O)NS(=O)(=O)C3CC3)C2)oc2ccccc12 (stereo unspecified)	3303
COc1ccc(Cc2c(C3CCCCC3)nc3c4ccccc4ccn23)c(C)c1	5122
CCCCCCC1CC(=CN(C)C)C(=O)O1 (stereo unspecified)	3642
Cc1c(Cl)cccc1NC(=S)NC(=O)c1ccccc1	3421
NC(CCc1ccccc1)c1csc(Nc2nncc3ccccc23)n1 (stereo unspecified)	3907
COc1ccc(CNC(=O)O[C@H]2CN(C(=O)OC(C)C)N(C(=O)OC(C)C)[C@@H]3CN(S(=O)(=O)c4ccc(C)cc4)C[C@]23O)cc1OC	3535
COc1ccc(N2CCN(C(=O)CSc3nnc(C4CC4)n3C3CC3)CC2)cc1	2867
COc1ccc(NC(=O)C2(C)Cc3c(-c4ccccc4)ccnc3O2)cc1OC (stereo unspecified)	3937
CCc1ccc([C@H]2[C@@H]3C(=O)C[C@@H]4C(=O)N(C)C(=O)[C@@H]4[C@@H]3CN2S(=O)(=O)c2ccc(C)cc2)cc1	6065
CCCNC(=O)OC1CC2CC1[C@H]1CCCCN1C2=O (stereo partly specified)	4383
CCNC(=O)C1CCCN(C(=O)c2cccc(C(F)(F)F)c2)CC1 (stereo unspecified)	3596
C/C=C/c1ccc2c(c1)O[C@H](CN(C)C(=O)NC1CCCC1)[C@H](C)CN([C@H](C)CO)S2(=O)=O	3081
Cc1ccccc1OP(=O)(Oc1ccccc1C)N1CCOCC1	6353
Cc1cc(C)c(C)c(S(=O)(=O)N2CCC(C(=O)NCc3cccs3)CC2)c1C	3908
CCCOc1ccc(F)cc1-c1cc(C(=O)NC2CCCCC2)[nH]n1	3926
COc1ncc(-c2ccc(N3C(c4ccsc4)=Cc4ccc(F)cc4C3CC(C)=O)cc2)cn1 (stereo unspecified)	6087
COC(=O)c1cccc(OCCCN2CCC(C(O)(c3ccccc3)c3ccccc3)CC2)c1	7627
CCN(CC(=O)Nc1cc(Cl)ccc1C)CC(=O)NC1CC1	3838
Cc1ccccc1-c1ccc(CN2C(C(C)C)C(=O)N(Cc3cn(CCC4OCCO4)nn3)CCS2(=O)=O)cc1 (stereo unspecified)	6471
COc1ccc2c(CN3CCN(c4ccccc4F)CC3)cc(=O)oc2c1	5454
O=C(CCN1CCCCC1)Nc1ccc(F)c(F)c1	3505
Nc1nc(N2CCCCC2)c2ncn(C3OC(CO)C(O)C3O)c2n1 (stereo unspecified)	3505
CC(N)c1csc(Nc2nccc(C(F)(F)F)n2)n1 (stereo unspecified)	3696
O=C(Nc1ccc2c(c1)OCCO2)C(C1CC1)N1CCN(C/C=C/c2ccccc2)CC1 (stereo unspecified)	5505
O=[N+]([O-])c1cccc(N=NNc2cccc([N+](=O)[O-])c2)c1	3981
CCCCN1C(=O)C(CC(=O)NCCc2ccccn2)CC(C(=O)N(C(C)C)C(C)C)=C1C (stereo unspecified)	3269
CCOC(=O)C1(CCCc2ccccc2)CCN(C(=O)c2n[nH]c(CC)c2C)CC1	3657
Cc1ccc(-c2nc3c(C)cc(Br)cn3c2Cc2cccc(F)c2)cc1	5949
C[C@@H]1CN([C@H](C)CO)S(=O)(=O)c2ccc(C#Cc3ccccc3F)cc2O[C@H]1CN(C)C(=O)c1ccc2c(c1)OCO2	3307
CCc1nc2ccc(C(=O)NCCC(C)C)cn2c1N(CCN(C)C)CC1CC1	3834
Cc1ccc(-c2nc3cc(C)c(Br)c(C)n3c2Cc2ccccc2)cc1	5684
Cc1ccc(Cc2c(C(C)(C)C)nc3cc(C)c(Br)c(C)n23)cc1	6051
CN1CCN(c2ncnc3c2ncn3[C@H]2CN(Cc3ccc(Cl)cc3)C[C@@H](CO)O2)CC1	3089
CS(=O)(=O)c1ccc(-c2cnc3c(NC=O)cc(-c4ccsc4)cn23)cc1	3261
COc1ccc(NC(=O)CN(C)C(=O)c2cc(C)oc2C)cc1	3862
CC(=O)N1N=C(c2ccc(Br)cc2)CC1c1ccc(Br)cc1 (stereo unspecified)	3390
CC1=C(C(=O)N(C(C)C)C(C)C)CC(CC(=O)NCCCCc2ccccc2)C(=O)N1CCC1=CCCCC1 (stereo unspecified)	5390
CCC(=O)N1CCC1(C)C(=O)Nc1nccs1 (stereo unspecified)	3011
COc1ccc(Cc2c(-c3ccccc3)nc3ccc(Br)cn23)c(C)c1	5928
Brc1ccc2c(c1)-n1nncc1CN(CC1CCCCC1)C2	4531
COc1ccc(S(=O)(=O)N(C)C[C@H]2Oc3ncc(-c4ccncc4)cc3C(=O)N([C@@H](C)CO)C[C@@H]2C)cc1	3660
C=C(C)Cn1c2ccc(NC(=O)CCc3cccc(Cl)c3)cc2c(=O)n1C	3814
CC(C)C[C@H]1CN([C@@H](Cc2ccc(O)cc2)CN2CCC[C@H]2CN2C(=O)C(=O)NC[C@@H]2Cc2ccccc2)C(=O)C(=O)N1CC1CCCCC1	4430
(further entries)
SMILES	Bead autofluor
CN1C(=O)[C@H]2[C@@H](c3ccc(C(F)(F)F)cc3)N[C@]3(CCCN(Cc4cccn4C)C3=O)[C@H]2C1=O	3550
CN(CC(=O)Nc1cccc(F)c1)C(=O)Cc1ccsc1	2820
C=C1C(=O)OC2C1CCC(C)=CCCC1(C)OC21 (stereo unspecified)	6042
CC1(C)CC(=O)C=C(c2ccc(COC(=O)C3CC3)cc2)C1=O	3335
COc1cccc(CNc2nc(NC(C)C)nc3ccsc23)c1	3791
Brc1ccc2nc(C3CCCCC3)c(Cc3ccccc3)n2c1	6098
CC1=C(C(=O)N2CCCCCC2)CC(CC(=O)NCCCN(C)C)C(=O)N1Cc1ccc(C(C)(C)C)cc1 (stereo unspecified)	5535
CN(C)CCNC(=O)C1(C)Cc2c(-c3cccc(C(F)(F)F)c3)ccnc2O1 (stereo unspecified)	3763
C[C@@H]1CCCCO[C@H](CN(C)S(=O)(=O)c2cccs2)[C@@H](C)CN([C@H](C)CO)C(=O)c2cc(NC(=O)Nc3ccc4c(c3)OCO4)ccc2O1	3762
CCNC(=O)C1(C)CCCN1Cc1ccccc1Cl (stereo unspecified)	2800
CCCN(C)C1CN(Cc2cn(Cc3ccc(OC)cc3)nn2)S(=O)(=O)C1 (stereo unspecified)	6266
CC1(C(=O)Nc2ccccc2Cc2ccccc2)CCN1CCc1ccccc1 (stereo unspecified)	3705
CC1=NN(c2ccccc2)C(=O)C1=Cc1ccccc1	3566
CCCc1nc2ccc(C)cn2c1Cc1ccccc1OC	5747
CC(C)(C)n1nnnc1C(c1cc2ccccc2o1)N1CCCC1 (stereo unspecified)	6100
O=S1(=O)CCN(Cc2cccnc2)CC1	2929
CC1(C(=O)NS(=O)(=O)c2ccc3c(c2)CCO3)CCN1C(=O)c1ccccc1CCc1ccccc1 (stereo unspecified)	3994
C=C1C(=O)OC2CCN3CC=C(COC(=O)C(C)(O)C4(CO4)C1C)C23 (stereo unspecified)	5497
CCOc1ccc(S(=O)(=O)c2ccc(C)cc2)c2c1no[n+]2[O-]	3830
C[C@@H](NC(=O)c1ncn2c1c(=O)[nH]c1cccnc12)c1ccccc1	3400
O=C(c1ccccc1)c1ccc(C(=O)N2CCN(c3ccccc3O)CC2)cc1	3559
CCc1nc2c(OCCn3cccc3)cccn2c1N(C=O)Cc1ccc(OC)cc1	4166
O=c1[nH]cnc2c1ncn2C1OC(CO)CC1F (stereo unspecified)	5960
CCCCc1c(O)nc(SCC(=O)N2CCOCC2)n(-c2ccc(C)cc2)c1=O	2939
COc1cc(Cl)ccc1OC1(C)CCN(Cc2cccc(OC)c2OC)C1 (stereo unspecified)	3009
CC(C)C(=O)N1CCC1(C)C(=O)Nc1ccc(-n2cccc2)cc1 (stereo unspecified)	3836
OC(c1ccc(Cl)c(F)c1)c1ncc(-c2ccc(F)cc2)[nH]1 (stereo unspecified)	3091
COc1ccc(CNC(=O)C2Cc3c(-c4ccccc4)ccnc3O2)cc1OC (stereo unspecified)	4278
CCc1nc2c(OCc3ccccc3C)cccn2c1N(C)C(=O)c1ccc(C)cc1	3471
COc1ccc(NC(=O)c2ccc(NC(=O)CN3CCN(c4ccccc4OC)CC3)cc2)cc1	3065
COc1ccc(C(O)c2nc(-c3cccc(C(F)(F)F)c3)cs2)cc1 (stereo unspecified)	3772
CC1(c2nnnn2-c2ccc3c(c2)OCCO3)CCC(=O)N1CC(F)(F)F (stereo unspecified)	6156
CC(=O)Nc1cc(-c2ccc(C(=O)N3CCOCC3)cc2)cn2c(-c3cccc(C(F)(F)F)c3)cnc12	3568
Oc1ccc(C[C@H]2CN([C@@H](Cc3ccccc3)CN3CCC[C@@H]3CN3C(=S)NC[C@@H]3Cc3ccccc3)C(=S)N2CC2CCCCC2)cc1	5608
CCCCOC(=O)C1=C(C)N(C)C(=O)NC1c1cc2c(cc1Br)OCO2 (stereo unspecified)	3671
C[C@@H]1COc2cc(N3CCN(Cc4ccccc4F)CC3)ccc2S(=O)(=O)N1	5864
CCOC(=O)C1CCCN(C(=O)c2ccc(F)c(C)c2)CC1 (stereo unspecified)	3983
O=C(NC1CCN(Cc2ccccc2)CC1)c1[nH]c(C(F)(F)F)nc1-c1ccccc1	5426&4376
CC(=O)c1ccccc1NC(=O)COC(=O)C1COc2ccccc2O1 (stereo unspecified)	3966
CC1(C(=O)NCc2ccccc2)Cc2c(-c3ccc4c(c3)OCO4)ccnc2O1 (stereo unspecified)	3632
CCc1nc2c(OCc3ccc(F)c(F)c3)cccn2c1N(C)C(=O)c1ccc(C)cc1	3971
Cc1cccc(C)c1NC(=O)C1c2ccccc2OCC(=O)N1CCc1ccccc1 (stereo unspecified)	3935
Clc1cccc(N2Cc3ccccc3-n3nncc3C2)c1	5416
CCCCN1C(=O)C(CC(=O)NC2CCCCC2)CC(C(=O)N(C(C)C)C(C)C)=C1C (stereo unspecified)	3760
COc1ccc(CN2CCC[C@]3(N[C@H](c4ccc(OC)cc4)[C@@H]4C(=O)N(Cc5ccccc5)C(=O)[C@@H]43)C2=O)cc1	3786
CCN(C(=O)Cn1cc(C(F)(F)F)ccc1=O)C1CCS(=O)(=O)C1 (stereo unspecified)	2948
CC(=O)N(C)C[C@H]1Oc2ncc(Br)cc2C(=O)N([C@H](C)CO)C[C@@H]1C	3701
CN(Cc1ccccc1)C(=O)c1ccc2sc([C@H]3C[C@H](O)[C@@H](CO)O3)nc2c1	3766
CCc1ccc2c(F)cccc2n1	5432
O=C1COC(c2ccccc2O)=NN1CCCl	3701
Other results:
SMILES	Bead autofluor
CCOC(=O)C1=CCN(S(=O)(=O)c2ccccc2C)C1c1cccc(C)c1 (stereo unspecified)	7521
CCCCCNC(=O)c1ccc(NC(=O)CC2SC(N3CCCC3)=NC2=O)cc1 (stereo unspecified)	3430
CCN(C)C1CN(Cc2cn(Cc3ccc(C)cc3)nn2)S(=O)(=O)C1 (stereo unspecified)	5976
Cc1ccccc1S(=O)(=O)N(C)C[C@@H]1OCc2ccccc2-c2c(n(C)c3ccccc23)C(=O)N([C@H](C)CO)C[C@@H]1C	3120
Cc1ccccc1S(=O)(=O)NC(=O)C1(C)CCN1C(=O)CCc1cccs1 (stereo unspecified)	3043
CC(C)C[C@H](NC(=O)c1[nH]cnc1C(=O)Nc1ccccc1F)C(=O)OC(C)(C)C	3470
Cc1nc2ccc(C(=O)Nc3cccc(OCC(=O)N(C)C)c3)cn2c1N(C)CC1CCCCC1	3018
CCN1C(=O)C(C)C=C(C)C=C1C (stereo unspecified)	3490
Cc1ccc(S(=O)(=O)NN=Cc2ccccc2Cl)cc1	3926
COc1ccc(CC(N)c2csc(Nc3nc(C)cnc3C)n2)cc1 (stereo unspecified)	4000
COc1ccc(C2CCCCCN2C(=O)C2CCN(S(=O)(=O)c3ccc(C)cc3)CC2)cc1 (stereo unspecified)	3841

Copied from above (16 entries):
SMILES	Bead autofluor
Clc1cccc(N2Cc3ccccc3-n3nncc3C2)c1	5416
CCCCN1C(=O)C(CC(=O)NC2CCCCC2)CC(C(=O)N(C(C)C)C(C)C)=C1C (stereo unspecified)	3760
COc1ccc(CN2CCC[C@]3(N[C@H](c4ccc(OC)cc4)[C@@H]4C(=O)N(Cc5ccccc5)C(=O)[C@@H]43)C2=O)cc1	3786
CCN(C(=O)Cn1cc(C(F)(F)F)ccc1=O)C1CCS(=O)(=O)C1 (stereo unspecified)	2948
CC(=O)N(C)C[C@H]1Oc2ncc(Br)cc2C(=O)N([C@H](C)CO)C[C@@H]1C	3701
CN(Cc1ccccc1)C(=O)c1ccc2sc([C@H]3C[C@H](O)[C@@H](CO)O3)nc2c1	3766
CCc1ccc2c(F)cccc2n1	5432
O=C1COC(c2ccccc2O)=NN1CCCl	3701
CCOC(=O)C1=CCN(S(=O)(=O)c2ccccc2C)C1c1cccc(C)c1 (stereo unspecified)	7521
CCCCCNC(=O)c1ccc(NC(=O)CC2SC(N3CCCC3)=NC2=O)cc1 (stereo unspecified)	3430
CCN(C)C1CN(Cc2cn(Cc3ccc(C)cc3)nn2)S(=O)(=O)C1 (stereo unspecified)	5976
Cc1ccccc1S(=O)(=O)N(C)C[C@@H]1OCc2ccccc2-c2c(n(C)c3ccccc23)C(=O)N([C@H](C)CO)C[C@@H]1C	3120
Cc1ccccc1S(=O)(=O)NC(=O)C1(C)CCN1C(=O)CCc1cccs1 (stereo unspecified)	3043
CC(C)C[C@H](NC(=O)c1[nH]cnc1C(=O)Nc1ccccc1F)C(=O)OC(C)(C)C	3470
Cc1nc2ccc(C(=O)Nc3cccc(OCC(=O)N(C)C)c3)cn2c1N(C)CC1CCCCC1	3018
CCN1C(=O)C(C)C=C(C)C=C1C (stereo unspecified)	3490
